HPGD block: qHTS Assay for Inhibitors of HPGD (15-Hydroxyprostaglandin Dehydrogenase); 15-hydroxyprostaglandin dehydrogenase [NAD(+)] (Homo sapiens), P15428; purified HPGD, NADH fluorescence kinetic, PGE2 substrate; Potency, µM, for inactives: at the highest dose activity change, negative = inhibition, usual class: inhibitors; hit rate 4.3% among 150,000; active = well fitted inhibition curve with a large enough effect (not every such curve was filed as active); inconclusive = small, poorly fitted or top-dose-only effect, or another doubt; inactive = no such curve, though single readings can be large or run the other way;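 note: top concentration of the series not given in the record; plate controls included wells without enzyme; inactives centre near -10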
Target sequence (P15428 whole entry, looked up): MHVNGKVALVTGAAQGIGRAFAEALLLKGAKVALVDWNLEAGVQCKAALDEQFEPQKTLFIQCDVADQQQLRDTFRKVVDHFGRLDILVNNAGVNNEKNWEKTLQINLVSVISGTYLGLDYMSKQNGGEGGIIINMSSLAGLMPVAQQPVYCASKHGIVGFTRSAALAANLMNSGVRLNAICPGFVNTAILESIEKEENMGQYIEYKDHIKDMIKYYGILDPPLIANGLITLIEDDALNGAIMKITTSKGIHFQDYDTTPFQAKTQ
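NADH formation kinetics: reaction with 30 uM PGE2 and 1 mM NAD+ (final), 20 nM enzyme, Tris-HCl pH 8 with Tween 20, after 15 min compound preincubation at room temperature. Fluorescence change, last versus first of five reads.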
An asterisk follows results filed as active. % is set by controls: 0 for no effect and ±100 for the full control effect; potency is the fitted concentration of half-maximal effect. A portion of the library (hit frequency here may not be typical).

O=C(CSc1nc2ccccc2c(=O)n1-c1ccc(Cl)cc1)N/N=C/C=C/c1ccccc1[N+](=O)[O-] was read as HPGD block -3.9%.
COC(=O)c1ccc2nc(NC(=O)COC(=O)CSc3nc(C)cc(C)n3)sc2c1 was read as HPGD block -17.9%.
Screening O=c1c2[nH]c3ccccc3c2ncn1CCN1CCCCC1 returned HPGD block -25.8%.
`CC(C)N(C(=O)COC(=O)c1cc(Cl)cc(Cl)c1N)C(C)C` gave HPGD block inconclusive.
Screening C=CCSc1nc(C)cc(/C=C\c2ccccc2)c1C#N returned HPGD block -27.8%.
Screening COc1ccc(CCN2C(=O)c3ccccc3C2(O)c2ncc[nH]2)cc1OC (stereo unspecified) returned HPGD block -3.2%.
For COC(=O)c1[nH]c2cccc(OC)c2c1NC(=O)CCN1CCN(c2ccccc2OC)CC1 the results were HPGD block inconclusive.
For O=C(COC(=O)c1cc2c(s1)CCC2)Nc1ccc(F)cc1 the results were HPGD block -14.8%.
For COc1ccc(NC(=S)N2CCC(N(C)CC3CCCO3)CC2)cc1Cl (stereo unspecified) the results were HPGD block -11.3%.
Cc1c(NC(=S)NC(=O)C(C)(C)C)c(=O)n(-c2ccccc2)n1C was read as HPGD block -9.8%.

A stretch taken from the entries so far, as a working copy:
For COc1ccc(NC(=S)N2CCC(N(C)CC3CCCO3)CC2)cc1Cl (stereo unspecified) the results were HPGD block -11.3%.
Cc1c(NC(=S)NC(=O)C(C)(C)C)c(=O)n(-c2ccccc2)n1C was read as HPGD block -9.8%.

Next part
Screening CCS(=O)(=O)Nc1ccc(-c2nnc(SCC(=O)c3cccc(OC)c3)o2)cc1 returned HPGD block inconclusive.
For CCOc1ccc(C2NC(=O)c3n[nH]c(C)c32)cc1 (stereo unspecified) the results were HPGD block -4.8%.
Screening COc1ccc(NS(=O)(=O)c2ccc(C)c(C(=O)O)c2)cc1 returned HPGD block -16.2%.
For CC1CCCN(CC(=O)Nc2ccc(S(=O)(=O)NC3CCCCC3)cc2)C1 (stereo unspecified) the results were HPGD block -15.1%.
Screening Cn1c(SCc2nc(-c3ccc(Cl)cc3)no2)nnc1-c1ccccc1 returned HPGD block -4.1%.
Screening COc1ccc(C2=NCC(CSc3nccc(=O)[nH]3)S2)cc1 (stereo unspecified) returned HPGD block 14.1µM*.
`O=C(CN(CC1CCCO1)C(=O)CNS(=O)(=O)c1ccc(Cl)cc1)NCC1CCCO1` (stereo unspecified) gave HPGD block -6.3%.
For CC1=CC(=C(C#N)C#N)C=C(C)N1CCN1CCN(C(=O)Nc2ccc(Cl)c(Cl)c2)CC1 the results were HPGD block inconclusive.
CC(C)CNCC(=O)N1c2ccccc2Sc2ccccc21 was read as HPGD block -2.1%.
COc1cc(C2NC(=O)NC(C)=C2C(=O)Nc2cccc(C)c2C)cc(OC)c1OC (stereo unspecified) was read as HPGD block -7.3%.
Screening Cc1cc(NCCN2CCOCC2)n2nc(C)c(-c3ccccc3)c2n1 returned HPGD block -6.3%.
Cc1cc(C(=O)CSc2nc(N)cc(=O)[nH]2)c(C)n1-c1cccc(F)c1 was read as HPGD block -5.7%.
For Cc1ccc(S(=O)(=O)/N=C2/NC(=O)/C(=C/c3ccncc3)S2)cc1 the results were HPGD block 14.1µM*.
For O=C(Cn1nnc(-c2ccccc2NC(=O)c2ccccc2)n1)Nc1ccc2c(c1)OCCO2 the results were HPGD block 9.1%.
O=C(c1ccco1)N1CCN(S(=O)(=O)c2ccc(S(=O)(=O)NC3CCCC3)cc2)CC1 was read as HPGD block -0.4%.
For CSc1ccc(/C=N/NC(=O)c2sccc2C)cc1 the results were HPGD block -22.1%.
`Cn1c(/C(C#N)=C(\O)COc2ccc3ccccc3c2)nc2ccccc21` gave HPGD block inconclusive.
`O=C(Nc1c(Cl)cc(Cl)cc1C(=O)NCCN1CCOCC1)c1ccc(Cl)cc1Cl` gave HPGD block -5.8%.
For COc1ccccc1C(=O)Nc1nnc(-c2ccc(F)cc2)o1 the results were HPGD block -5.9%.
Screening Cc1ccc2cc(C#N)c(SCC(=O)NCc3ccco3)nc2c1 returned HPGD block -15.6%.
CCOc1ccc(C2=Nn3c(nnc3-c3ccco3)SC2)cc1 was read as HPGD block -20.7%.
Screening CC(C)OC(=O)CSc1nnc(Cc2ccccc2)n1CC1CCCO1 (stereo unspecified) returned HPGD block -5.1%.
For CCOC(=O)Cc1csc(NC(=O)CSc2nncn2C)n1 the results were HPGD block -11.7%.
CCOC(=O)c1ccccc1NC(=O)Cn1cnc2c(nnn2-c2ccc(C)cc2)c1=O was read as HPGD block inconclusive.
For CC1Cc2ccccc2N1CC(=O)NC(c1ccccc1)c1ccccc1 (stereo unspecified) the results were HPGD block -7.8%.
Screening O=C(O)C1CC=CCC1C(=O)Nc1cc(Cl)ccc1Cl (stereo unspecified) returned HPGD block -25.0%.
`CCCC[N+](C)(C)CCC(=O)NC(C)(C)CS(=O)(=O)[O-]` gave HPGD block 2.7%.
Screening Nc1[nH]c(N=NC(=O)c2ccccc2)c2ccccc12 returned HPGD block -15.8%.
COC(=O)c1sccc1NC(=O)Cn1nnc(-c2ccc(C)cc2)n1 was read as HPGD block -6.0%.
Screening CCOC(=O)c1ccc2nc(C)c(CCC(C)=O)c(Cl)c2c1 returned HPGD block -13.1%.
Screening Cc1cc(Cl)ccc1NC(=O)CSc1nnc(Cc2cccs2)n1Cc1ccco1 returned HPGD block -12.8%.
O=C(N/N=C/C=C/c1ccccc1)C1CC1(c1ccccc1)c1ccccc1 (stereo unspecified) was read as HPGD block -0.8%.
`COC(=O)c1cc2ccccn2c2c(C(=O)OC)c(C(=O)OC)cc1-2` gave HPGD block -19.7%.
CCOC(=O)c1ccccc1NC(=O)CN1C(=O)c2ccccc2S1(=O)=O was read as HPGD block -2.5%.
For Cc1cccc(-c2nc3ccccc3c(=O)n2NC(=O)Cc2ccc(Cl)cc2)c1 the results were HPGD block -9.4%.
`COCCn1c(=NC(=O)c2cc(Cl)sc2Cl)sc2cc(S(N)(=O)=O)ccc21` gave HPGD block inconclusive.
`O=C(NCc1ccc(F)cc1)c1cnc(-c2ccccn2)nc1C(F)(F)F` gave HPGD block -9.8%.
Screening CCOc1ccc(C2c3c(oc4ccccc4c3=O)C(=O)N2c2ccc(C)cn2)cc1OC (stereo unspecified) returned HPGD block -20.5%.
`COc1ccccc1N(CC(=O)N1CCCCC1)S(=O)(=O)c1ccccc1` gave HPGD block -12.0%.
`O=C(O)C1CCN(c2c([N+](=O)[O-])cc(C(F)(F)F)cc2[N+](=O)[O-])CC1` gave HPGD block -14.4%.
COC(=O)c1ccc(-n2c(C)ccc2-c2ccccc2)cc1 was read as HPGD block inconclusive.
Cc1cccn2c(=O)c(C=NCc3ccccc3)c(NCCO)nc12 was read as HPGD block -15.1%.
Screening CCc1cc(C(=O)OC)c(N2C(=O)C3C4C=CC(C4)C3C2=O)s1 (stereo unspecified) returned HPGD block -5.6%.
`COc1ccc(C(=O)OCC(=O)Nc2ccc(F)c(F)c2F)cc1OC` gave HPGD block -3.4%.
For COC(=O)CNC(c1ccccc1)c1cc(Br)ccc1NC(=O)CCN1CCOCC1 (stereo unspecified) the results were HPGD block inconclusive.
For CC(=O)Nc1ccc2c(c1)OCCO2 the results were HPGD block -8.2%.
For COc1cccc(NC(=S)N/N=C2\CC(C)(C)Oc3ccc(O)cc32)c1 the results were HPGD block -17.6%.
For Cc1ccc(SCC(=O)O/N=C(\N)c2ccc([N+](=O)[O-])cc2)cc1 the results were HPGD block -8.2%.
CC(C)OC(=O)CSc1nnc(-c2cnccn2)n1Cc1ccco1 was read as HPGD block -21.0%.
O=C1CCc2cc(S(=O)(=O)N3CCC(C(=O)NC4CCCC4)CC3)ccc2N1 was read as HPGD block -2.3%.

Sorted by molecular weight (rising): some entries from above
For CC(=O)Nc1ccc2c(c1)OCCO2 the results were HPGD block -8.2%.
COC(=O)c1ccc(-n2c(C)ccc2-c2ccccc2)cc1 was read as HPGD block inconclusive.
Screening CCc1cc(C(=O)OC)c(N2C(=O)C3C4C=CC(C4)C3C2=O)s1 (stereo unspecified) returned HPGD block -5.6%.
Cc1cccn2c(=O)c(C=NCc3ccccc3)c(NCCO)nc12 was read as HPGD block -15.1%.
`COC(=O)c1cc2ccccn2c2c(C(=O)OC)c(C(=O)OC)cc1-2` gave HPGD block -19.7%.
For Cc1ccc(SCC(=O)O/N=C(\N)c2ccc([N+](=O)[O-])cc2)cc1 the results were HPGD block -8.2%.
CC(C)OC(=O)CSc1nnc(-c2cnccn2)n1Cc1ccco1 was read as HPGD block -21.0%.
`O=C(O)C1CCN(c2c([N+](=O)[O-])cc(C(F)(F)F)cc2[N+](=O)[O-])CC1` gave HPGD block -14.4%.
`COc1ccc(C(=O)OCC(=O)Nc2ccc(F)c(F)c2F)cc1OC` gave HPGD block -3.4%.
For COc1cccc(NC(=S)N/N=C2\CC(C)(C)Oc3ccc(O)cc32)c1 the results were HPGD block -17.6%.
`O=C(NCc1ccc(F)cc1)c1cnc(-c2ccccn2)nc1C(F)(F)F` gave HPGD block -9.8%.
CCOC(=O)c1ccccc1NC(=O)CN1C(=O)c2ccccc2S1(=O)=O was read as HPGD block -2.5%.
Screening CCOc1ccc(C2c3c(oc4ccccc4c3=O)C(=O)N2c2ccc(C)cn2)cc1OC (stereo unspecified) returned HPGD block -20.5%.
`COCCn1c(=NC(=O)c2cc(Cl)sc2Cl)sc2cc(S(N)(=O)=O)ccc21` gave HPGD block inconclusive.
For COC(=O)CNC(c1ccccc1)c1cc(Br)ccc1NC(=O)CCN1CCOCC1 (stereo unspecified) the results were HPGD block inconclusive.

The list continues:
For CCOc1cc(C(=O)N(C)Cc2cc3ccccc3[nH]c2=O)cc(OCC)c1OCC the results were HPGD block 0.2%.
Screening CCCc1[nH]nc2c1C(c1cc(OC)cc(OC)c1)C(C#N)=C(N)O2 (stereo unspecified) returned HPGD block -26.3%.
Screening COc1ccccc1CNC(=O)COC(=O)[C@H](Cc1c[nH]c2ccccc12)NC(=O)c1cccs1 returned HPGD block -22.5%.
Screening CC(CCC(=O)O)C1CCC2C3C(=O)C[C@@H]4CC(=O)CC[C@@]4(C)C3CC(=O)[C@]12C (stereo partly specified) returned HPGD block -6.1%.
`COC(=O)Cn1ccc(N(C)C)c(C#N)c1=O` gave HPGD block -1.5%.
`CCn1nnnc1SCC(=O)NCc1ccc2c(c1)OCO2` gave HPGD block -11.4%.
Screening O=C(Nc1cccs1)Nc1c(F)c(F)c(F)c(F)c1F returned HPGD block -10.9%.
Cc1cc(C)nc(Nc2ccccc2Br)n1 was read as HPGD block -4.4%.
Screening CC1CCC/C(=N\NC(=S)Nc2ccccc2)C1 (stereo unspecified) returned HPGD block -8.4%.
Cn1c(=O)c2[nH]c(/N=N\N3CCN(CCO)CC3)nc2n(C)c1=O was read as HPGD block -6.6%.
Screening CC(=O)N(C(C)=O)S(=O)(=O)c1ccc(N=NN2CCOCC2)cc1 returned HPGD block -14.2%.
For Fc1ccccc1 the results were HPGD block -9.2%.
For COc1nc(-c2ccc(Cl)cc2)ccc1-c1noc(-c2cccs2)n1 the results were HPGD block inconclusive.
`COc1ccc(CN(C(=O)c2cccs2)C(C(=O)NC2CCCCC2)c2ccc3ncccc3c2)cc1` (stereo unspecified) gave HPGD block -10.9%.
For O=C(CSc1nc2ccccc2n1Cc1ccccc1)N/N=C/c1ccco1 the results were HPGD block -4.5%.
Screening CC1=C/C(=C\c2ccc(Br)o2)C(=O)O1 returned HPGD block -6.6%.
O=C(CSc1nc2cc(S(=O)(=O)N3CCOCC3)ccc2o1)NC1CCCc2ccccc21 (stereo unspecified) was read as HPGD block 8.91µM*.
`COc1ccc(C(=O)OCC(=O)NCc2ccco2)cc1S(=O)(=O)N1CCN(c2cccc(Cl)c2)CC1` gave HPGD block -6.5%.
For Cc1cccn2c(=O)c3cc(C#N)c(=O)n(-c4c(C)n(C)n(-c5ccccc5)c4=O)c3nc12 the results were HPGD block -9.0%.
For Cc1ccc(OC(=O)c2ccc(S(=O)(=O)N(C)C)cc2)c(-n2nc3ccccc3n2)c1 the results were HPGD block -9.3%.
Screening Cc1cc(C(=O)OCC(=O)Nc2ncc(C(F)(F)F)cc2Cl)c(C)o1 returned HPGD block -8.6%.
Screening Nc1ncnc2c1CCC2 returned HPGD block -1.3%.
For CCOC(=O)C(NCc1ccccc1OC)(NC(C)=O)C(F)(F)F (stereo unspecified) the results were HPGD block -8.5%.
`CCN(CC(=O)NCc1cccs1)c1nnnn1-c1ccccc1` gave HPGD block -4.7%.
Screening O=C(Nc1ccc(OCC(=O)N2CCC(Cc3ccccc3)CC2)cc1)c1ccco1 returned HPGD block -17.0%.
`COc1ccc(N=C2SC(CC(=O)Nc3ccccc3OC)C(=O)N2Cc2ccco2)cc1` (stereo unspecified) gave HPGD block inconclusive.
CC(C)CCn1cnc2c(cnn2-c2ccc(F)cc2)c1=O was read as HPGD block 11.2µM*.
`O=C(N/N=C/c1ccccc1)c1ccc(CN2C(=O)c3cccc4cccc2c34)cc1` gave HPGD block inconclusive.
COc1cc(/C=C/C(=O)c2cccs2)cc(OC)c1OC was read as HPGD block 28.2µM*.
`Cn1c(C(=O)NCCCN2CCOCC2)cc2c(=O)n(C)c3ccccc3c21` gave HPGD block inconclusive.
For Cc1cc(C)n2ncc(C(=O)Nc3ccc4c(c3)OCO4)c2n1 the results were HPGD block -5.0%.
`COc1ccc(N(CC(=O)Nc2cccc(C)c2)S(=O)(=O)c2c(C)n[nH]c2C)cc1` gave HPGD block -7.8%.
`O=C(c1ccco1)[C@@H]1[C@@H]2C(=O)N(c3ccccc3)C(=O)[C@@H]2C2c3ccccc3C=CN21` (stereo partly specified) gave HPGD block inconclusive.
Screening O=C1C2ON(c3ccccc3)C(c3ccncc3)C2C(=O)N1c1ccc(N2CCOCC2)cc1 (stereo unspecified) returned HPGD block 2.4%.
`COC(=O)c1ccc(CSc2nnc(Nc3ccc(C)cc3)s2)o1` gave HPGD block -7.8%.
For COC(=O)c1ccc(CSc2nnc(CNC(=O)c3ccccc3F)o2)o1 the results were HPGD block -11.3%.
`C(=C1/CCCC2=C1Nc1ncnn1C2c1ccccc1)/c1ccccc1` (stereo unspecified) gave HPGD block 25.1µM*.
